# Bioassay records as filed in PubChem BioAssay.
# TRPML1 ag: activates the human TRPML1 channel. Q9GZU1. TRPML1-expressing cells, Ca2+ dye fluorescence, FDSS; host cell line not named in the record; reference of the full effect not given here. activation, % (concentration not given with the values). hit rate 0.12% among 410,000; in the data active = activation above about 50%; inconclusive = about 30% to 50%; inactive = below about 30%; further: 0% is about no effect; the text of the record puts the active cut at 80%
# Target sequence (Q9GZU1 whole entry, looked up): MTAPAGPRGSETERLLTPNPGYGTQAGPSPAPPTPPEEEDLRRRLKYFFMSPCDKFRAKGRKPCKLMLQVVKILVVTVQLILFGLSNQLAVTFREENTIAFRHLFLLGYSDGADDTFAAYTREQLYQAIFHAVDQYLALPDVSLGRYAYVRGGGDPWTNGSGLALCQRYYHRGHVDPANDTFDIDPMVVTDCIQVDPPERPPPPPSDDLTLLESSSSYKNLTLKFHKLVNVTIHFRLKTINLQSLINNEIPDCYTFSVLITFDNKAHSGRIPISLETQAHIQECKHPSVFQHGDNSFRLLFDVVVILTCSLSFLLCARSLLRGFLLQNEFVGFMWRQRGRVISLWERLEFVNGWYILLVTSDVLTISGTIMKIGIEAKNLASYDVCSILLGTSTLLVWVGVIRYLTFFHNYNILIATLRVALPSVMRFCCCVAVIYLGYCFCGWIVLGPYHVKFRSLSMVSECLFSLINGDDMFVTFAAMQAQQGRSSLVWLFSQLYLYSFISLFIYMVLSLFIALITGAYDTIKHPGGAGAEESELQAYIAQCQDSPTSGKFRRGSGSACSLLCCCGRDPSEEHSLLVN
#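 TRPML1-DL cells, Tet-induced overnight (~16 h, 37 degrees C), loaded 45-90 min at room temperature with Ca8 no-wash calcium dye plus quencher. FDSS fluorescence: 10 s baseline, compound pin-transfer, 110 s agonist read, then EC80 54-4 (4uM final) and 110 s antagonist read.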
# ClpP mod: qHTS Assay for Activators of ClpP. ATP-dependent Clp protease proteolytic subunit (Bacillus subtilis (strain 168)), P80244. purified B. subtilis ClpP, FRET peptide cleavage, 20 min. Potency, µM (doses to about 57.5 µM), for the others: at the top dose activity change, negative = active. hit rate 1.9% among 340,000; active = well fitted falling curve with a large enough effect; inconclusive = small, poorly fitted or top-dose-only effect; inactive = no such curve, though single readings can be large or run the other way; further: potency means the concentration at half of the fitted maximal effect; the source files actives as falling curves though it sought activators and does not explain the sign; nearly all actives have a fitted effect of over 65% in size; many hits overshoot -100%
# Target sequence (P80244 whole entry, looked up): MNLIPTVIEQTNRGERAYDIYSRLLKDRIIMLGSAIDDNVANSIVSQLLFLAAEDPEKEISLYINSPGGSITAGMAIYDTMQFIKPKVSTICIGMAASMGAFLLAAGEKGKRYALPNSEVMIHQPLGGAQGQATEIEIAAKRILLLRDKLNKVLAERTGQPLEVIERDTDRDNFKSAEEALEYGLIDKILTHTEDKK
#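 Purified B. subtilis ClpP, 10 microg/mL final in Tris/HCl pH8 with KCl, BSA, glycerol and Tween-20, cleaved an Abz/nitrotyrosine-quenched decapeptide. Fluorescence (ex 320, em 430) was read at 0 and 20 min at room temperature. Delta was normalized to 5.8 microM ADEP and DMSO/no-enzyme controls.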
# gsp agonist: gsp mutant agonism | gsp mutant cells, cAMP HTRF, 30 min; control for the full effect not named in the record | Potency, µM (series often up to 76.9 µM), for the others: at the highest dose activation (cAMP increase), usual class: activators | hit rate 0.13% among 340,000 | AID 624287; active = well fitted activation curve with a large enough effect; inconclusive = small, poorly fitted or top-dose-only effect, or another doubt; inactive = no such curve, though single readings can be large or run the other way; cell line not stated here;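 further: phosphodiesterase inhibitor Ro 20-1724 added with compounds to block cAMP breakdown; potency means the concentration at half of the fitted maximal effect; nearly all actives have a fitted effect of over 60% in size; about a fifth of the inactives were tested at one dose only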
#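 Cells stably selected in G418 were plated at 2000/well, grown 16-24 hr, then given compounds in DMSO with the PDE inhibitor […] (300 uM solution added) for 30 min at 37C; cAMP was read by HTRF.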
# Menin MLL FP FL: menin-MLL binding inhibition, fluorescein peptide. Fluorescence polarization, fluorescein-MLL peptide displacement from menin. 290,000 tested, under 10 active. AID 1766. FP activity change, % at 61.4 µM; inconclusive = falling polarisation curve, or a change in total fluorescence; inactive = total fluorescence flat and polarisation flat or rising; no compound was filed as active; the % refers to the polarisation; negative = inhibition;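 further: % of control where 0% means no effect; inhibitors lower the polarisation; unlabelled MLL peptide was the positive control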
# gsp antagonist: antagonists of gsp mutant (McCune-Albright syndrome); gsp-mutant cells, cAMP HTRF, 30 min; control for the full effect not named in the record; Potency, µM (titrated, usually from 76.9 µM), inactives show at the highest dose activity change, negative = inhibition, actives largely listed as inhibitors; hit rate 0.4% among 340,000; active = falling curve of any shape with a large fitted effect; inconclusive = falling curve, mostly with a smaller effect; inactive = flat or rising curve; cell line not stated here;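 further: intracellular cAMP measured with PDE inhibitor Ro 20-1724 present during compound exposure; potency means the concentration at half of the fitted maximal effect; on the % scale 0 is the no-effect control and ±100 the full control effect; nearly all actives have a fitted effect of over 65% in size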
#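 Cells in G418 medium, seeded 16-24 h, 37C; buffer exchange to DPBS + 1 mM CaCl2, 0.5 mM MgCl2, 0.05% BSA; cpds in DMSO + […] (300 uM stock), 30 min 37C; HTRF cAMP detection.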
# TRPML1 inh: human mucolipin-1 channel inhibition | TRPML1-inducible cells, Ca2+ dye fluorescence, FDSS; hits give low values; inhibition of EC80 agonist-evoked calcium signal | activity change, negative = inhibition, % (no concentration beside the values) | hit rate 0.02% among 390,000 | AID 624415; in the data active means activity change below about -50%; inconclusive means about -30% to -50%; inactive means above about -30%;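 further: stimulus is agonist 54-4 at its EC80 concentration; on the % scale 0 is the no-effect control and ±100 the full control effect; compound concentration not given in the record; the text of the record puts the active cut at -80%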
#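 TRPML1-DL cells, Tet-induced overnight (~16 h, 37 °C) at 1,500 cells/well, were loaded with Ca8 no-wash dye plus quencher for 45-90 min at room temperature. Compounds were pinned during FDSS kinetic reading; agonist 54-4 at EC80 (4 uM final) then added.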
# * hit, by the source's call; ? = inconclusive; . = not tested or not shown; & = joins results of further samples; [ ] = dose if it differs, or a comment.
SMILES,TRPML1 ag,ClpP mod,gsp agonist,Menin MLL FP FL,gsp antagonist,TRPML1 inh
COc1ccc(NC(=O)C(c2ccccc2)N(C)C(=O)CNC(C)=O)cc1 (configuration not stated),1.0,0.2%,-12%,1.1,4%,-17
CCOC(=O)NCc1ccc2c(c1)cc(C)n2C,3.8,-16%,-35%[inhibitor],-1.3,14%,10
COCCn1c(Cc2ccccc2)nnc1SCc1ccc([N+](=O)[O-])cc1,1.8,0.9%,5%,14,13%,3
CCC1CCCCN1S(=O)(=O)c1ccc(C(=O)Nc2nnc(C3=COCCO3)o2)cc1 (configuration not stated),0.9,-0.6%,-6%,.,-8%,4
O=C(NC1CCCCC1)c1cc([N+](=O)[O-])ccc1N1CCOCC1,0.6,0.1%,-3%,-0.4,9%,12
COc1ccc(N=C2SC(CC(=O)Nc3ccccc3)C(=O)N2CC2CCCO2)cc1 (configuration not stated),0.5,0.7%,-2%,-1.0,-6%,-2
CN1/C(=C/C(=O)CSc2ccccc2C(=O)O)C(C)(C)c2ccccc21,0.2,-28%,-1%,?,-2%,0
CCC(=O)N(Cc1ccco1)c1nc(C(=O)Nc2ccc(Cl)cc2)c(C)s1,2.6,-22%,10%,16,4%,35
Cc1c(Nc2nc(-c3ccccc3)cs2)c(=O)n(-c2ccccc2)n1C,-0.2,-0.2%,-10%,4.7,3%,8
CCc1ccc(NC(=O)Cn2cnc3sc(C)c(S(=O)(=O)N4CCOCC4)c3c2=O)cc1,-0.5,.,9%,-4.6,2%,-3
O=C(Oc1ccc2ccccc2c1)C1CCC1,-0.8,.,?,6.5,2%,-12
COc1ccc(OC)c(CNC(=O)C(C)n2c(C)c3cnn(-c4ccccc4)c(=O)c3c2C)c1 (configuration not stated),1.1,-5.4%,.,.,.,4
CCc1cc2c(=O)[nH]c(Cc3ccc(OC)cc3)nc2s1,1.1,-1.5%,1%,18,6%,12
Cc1ccc(-n2nc(N)c3c(=O)oc(N(C)C)nc32)cc1,1.3,-0.2%,4%,2.8,-3%,-7
CCN(C(=O)C1CCC(CNS(=O)(=O)c2cccc3nsnc23)CC1)c1cccc(C)c1 (configuration not stated),-1.0,0.9%,.,.,.,0
COc1ccc2c(c1)Sc1ccccc1N2CCN(C)C,0.2,17%,-27%,2.6,7%,52
O=C(N/N=C/c1cccs1)C(O)c1ccccc1 (configuration not stated),-0.7,0.1%,9%,-3.0,-5%,12
COc1cccc(C2C3=C(N=c4s/c(=C\c5cccc(O)c5)c(=O)n42)c2ccccc2CC3)c1OC (configuration not stated),0.7,-0.8%,6%,3.9,-16%,-11
CNC(=O)C(=O)Nc1c(O)c2ccccc2[nH]c1=O,-1.0,.,14%[15.4 µM],3.2,-11%,-3
CCOC(=O)c1ccc(NC(=O)Nc2ccn(C)n2)cc1,3.5,-4.0%,16%,4.1,-22%,1
COc1cccc(C(=O)CN2CCN(S(=O)(=O)c3ccc(Br)cc3)CC2)c1,0.6,-4.5%,-11%,-4.6,-7%,0
CC(=O)c1ccc(N2CCN(C(=O)COc3ccc(F)cc3)CC2)c(F)c1,-0.1,-13%,2%,2.3,-16%,-24
COc1ccccc1NC(=O)N1CCN(c2ccc3nnc(-c4ccc(F)cc4)n3n2)CC1,2.3&2.8,-5.5%,8%[15.4 µM],2.6,?,25&34
Cc1cccc(C)c1OCc1cn(CC(=O)c2ccc(O)cc2)nn1,-0.6,-2.9%,.,.,2%,-8
Cc1cc(NC(=O)c2ccc(Cl)cc2)no1,0.6,0.8%,-5%,-1.2,8%,-5
CC(=O)c1cc(C#N)c(N(C)Cc2ccccc2)nc1C,3.3,.,1%,-2.6,5%,14
N#Cc1ccsc1NC(=O)c1ccc2ncsc2c1,3.2,-2.0%,9%,.,.,22
O=[N+]([O-])c1ccc(C[n+]2cccc(O)c2)cc1,-0.3,1.4%,.,.,6%,8
CCO[C@@H]1OC(C(N)=O)=C[C@H](C2CCCCC2)[C@H]1CCCO,-0.8,-1.8%,.,0.4,-2%,1
Cc1cc(C(=O)COC(=O)C2CCN(C(=O)c3ccc(Cl)cc3)CC2)c(C)n1CC1CCCO1 (configuration not stated),0.4,.,-12%[15.4 µM],0.5,-10%,-11
CCOc1ccc(S(=O)(=O)/N=C(/c2ccccc2)N(C)C)cc1,-0.3,1.5%,?,0.7,1%,1
CCOc1ccccc1N(C(=O)Nc1cccc(Cl)c1)C1=NC(C)CS1 (configuration not stated),-0.5,.,-29%,1.3,4%,0
O=C(NCc1ccc2c(c1)OCO2)C1CC(c2ccc(Cl)c(Cl)c2)=NO1 (configuration not stated),1.9,2.8%,-14%,3.9,-2%,3
CC(=O)c1c(C)n([O-])c2ccc(C)cc2[n+]1=O,-0.1,?,-2%,0.0,8%,-7
COc1ccc(-n2nc(C(=O)NCC(=O)N3CCC(C(N)=O)CC3)c3ccccc3c2=O)cc1OC,-0.3,.,18%[15.4 µM],0.0,8%,9
O=C(Nc1ccnc(-c2cccnc2)n1)c1ccccc1Cl,0.3,6.7%,2%,16,7%,10
COc1ccc(OC)c(NS(=O)(=O)c2c(C(=O)N3CCCCCC3)c(C)n(C)c2C)c1,-0.6,-0.4%,-6%,-1.0,-6%,7
Cc1ccc(CN2CCNC(=O)C2CC(=O)NC2CCCCCC2)cc1 (configuration not stated),1.3,-3.9%,0%,.,9%,-13
C/C(=N\NC(=S)NC1CCCCC1)c1ccc(OC(F)F)cc1OC(F)F,1.3,.,-2%[15.4 µM],-4.9,?,10
CC1CCN(C(=O)c2[nH]cnc2C(=O)NCc2ccc(CNC(=O)OC(C)(C)C)cc2)CC1,-0.4,-0.3%,.,.,-7%,19
CC1=C[C@H]2OC(=O)[C@@H](C)[C@H]2C[C@@H]2[C@H]1C[C@@H](O)[C@@]2(C)O,-0.4,-2.2%,9%,4.4,0%,2
Cc1ccc(C(=O)N(CCC2=CCCCC2)c2c(N)n(Cc3ccccc3)c(=O)[nH]c2=O)o1,0.1,-0.2%,6%[15.4 µM],.,-24%,-6
CC/C(CC(C)(C)c1ccccc1)=N\O,0.0,-0.5%,-17%,-8.2,11%,10
Cc1ccc(COc2coc(CO)cc2=O)cc1,0.1,-0.5%,-22%,1.3,13%,-6
COc1ccc(C2Nc3ccccc3C(=O)N2Cc2ccco2)cc1COc1ccccc1F (configuration not stated),0.4,14µM*,-6%,0.1,6%,-7
CCOC(=O)C1CCN(C(=O)CN2C(=O)NC3(CCCCC3)C2=O)CC1,-0.2,0.9%,23%,.,3%,6
COc1ccc(-c2nnc(SCc3cccc(C)c3)n2N)cc1,0.0,0.4%,-49%[inhibitor],-1.3,2%,-1
CCn1c(=O)n(CC)c2cc(S(N)(=O)=O)ccc21,0.1,-0.8%,-35%[inhibitor],0.0,8%,-3
COc1cc(OC)c(NC(=O)c2ccc3c(SCC(=O)O)c4c(nc3c2)CCCC4)cc1Cl,3.5,0.2%,-5%,9.9,-11%,13
O=S(=O)(c1ccc2c(c1)CCN2)N1CCCCCC1,-1.0,?,.,.,.,3
Cc1oc2ccc(O)c(CN3CCCC(C)C3)c2c1C(=O)Nc1ccccc1 (configuration not stated),-0.1,-0.8%,.,.,.,-4
Nc1cc(=O)[nH]c(SCC(=O)Nc2ccc(Cl)c(Cl)c2)n1,-0.2,1.1%,-19%,4.6,-3%,-4
Cc1ccccc1C(=O)NC1CCN(C(=O)Nc2ccc(F)cc2)CC1,-0.4,.,-37%,2.2,6%,-4
Cc1ccc(C(=O)N/C(=C\c2cn(C)c3ccccc23)C(=O)NCCN2CCOCC2)cc1,-0.2,.,?,.,-2%,3
O=C(NCCCc1ccccc1)C1CCN(S(=O)(=O)c2ccc(F)cc2)CC1,2.4,-1.1%,-22%,.,7%,3
CCC[C@@H](CN1CCC[C@H]1CN1C(N)=NC[C@@H]1Cc1ccccc1)N1C[C@@H](Cc2ccccc2)N(CCCC2CCCC2)C1=N,-0.5,0.6%,.,.,10%,-2
CS(=O)(=O)NCCOc1ccc(S(=O)(=O)NCCOc2ccccc2)cc1,0.0,.,34%[15.4 µM],-0.3,4%,-8
CC(=O)Nc1ccc(S(=O)(=O)NCc2ccccn2)cc1,0.3,-3.2%,-2%,5.1,5%,19
Nc1ccccc1SC(CC(=O)c1ccccc1)c1ccccc1 (configuration not stated),-0.9,0.3%,?,.,.,30
Cc1ccc(CNC(=O)[C@@H](NC(=O)C2CCN(C(=O)[C@@H]3CCCN3)CC2)C(C)C)cc1,.,1.7%,.,-4.2,10%,.

# Given tab-delimited: part of the list above
SMILES	TRPML1 ag	ClpP mod	gsp agonist	Menin MLL FP FL	gsp antagonist	TRPML1 inh
Nc1ccccc1SC(CC(=O)c1ccccc1)c1ccccc1 (configuration not stated)	-0.9	0.3%	?	.	.	30
Cc1ccc(C(=O)N/C(=C\c2cn(C)c3ccccc23)C(=O)NCCN2CCOCC2)cc1	-0.2	.	?	.	-2%	3

# (list continues)
SMILES,TRPML1 ag,ClpP mod,gsp agonist,Menin MLL FP FL,gsp antagonist,TRPML1 inh
COc1ccc(N2CCN(C(=O)COC(=O)c3cc(S(=O)(=O)N(C)C)ccc3N3CCCC3)CC2)cc1,-0.6,1.9%,0%,.,-22%,-5
O=C(C1=C[C@H](c2ccc(Br)cc2)C[C@H](OCCCCO)O1)N1CCN(Cc2ccc3c(c2)OCO3)CC1,-0.1,-5.5%,-1%,-1.9,-4%,9
CC1CCN(C(=O)CSc2nnc(CNC(=O)c3c(F)cccc3F)o2)CC1,0.0,0.9%,-114%[inhibitor],-1.8,5%,4
CCS(=O)(=O)NCC(c1ccco1)N1CCN(c2ccccc2F)CC1 (configuration not stated),-0.2,-2.0%,-7%,-0.7,1%,2
O=C(NCCCN1CCCCC1)c1sc2ncccc2c1-n1cccc1,0.4,-2.9%,.,.,.,21
COc1ccc(C2NC(=O)N(C)C3=C2C(=O)N(c2ccc(C)cc2)C3)cc1 (configuration not stated),0.9,-6.0%,.,.,.,11
CC1N(C)c2cc(NC(=O)c3ccco3)ccc2C1(C)C (configuration not stated),1.1,1.3%,?,0.5,-13%,5
Nc1c(C(=O)Nc2cccc(F)c2)nnn1-c1cccc(C(F)(F)F)c1,0.4&-0.6,0.5%&-15%,-4%[15.4 µM],-2.5,-16%,3&22
CCN(CC)S(=O)(=O)c1ccc(C(=O)/C=C/c2ccc(-c3ccc([N+](=O)[O-])cc3)o2)cc1,0.6,1.2%,16%,?,-4%,28
CSc1nc2sc3c(c2c(=O)n1C)CCCC3,2.5,-1.6%,-12%,-0.2,-7%,36
O=C(Nc1ccc(C(=O)N2CCOCC2)cc1)c1cccc([N+](=O)[O-])c1,0.4,.,1%[15.4 µM],2.4,2%,21
